Screening data as filed in PubChem.
E coli growth: inhibitors of Escherichia coli growth; OD600, 23 h; active compounds read low; OD600 absorbance (concentration not given with the values); actives 0.21% (n = 330,000); AID 1053175;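 active = OD600 absorbance below the run mean of sample wells minus 3.6 SD, in any replicate, cut at about 0.56 in these data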;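 also: stock transfer was 300 nL into about 60 µL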
ALR H2O2 inh: inhibitors of human sulfhydryl oxidase ALR. P55789. inhibition, % (test concentration not listed). purified ALR, DTT oxidation, H2O2 HRP-luminol luminescence. actives 3.8% (n = 290,000);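 active = mean and each replicate at 75% or more; inconclusive = only one of the two met; inactive = neither met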;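 also: stock transfer was 7.5 nL into about 7.5 µL; 0% = neutral wells and 100% = wells with inactivated enzyme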
Target sequence (P55789 whole entry, looked up): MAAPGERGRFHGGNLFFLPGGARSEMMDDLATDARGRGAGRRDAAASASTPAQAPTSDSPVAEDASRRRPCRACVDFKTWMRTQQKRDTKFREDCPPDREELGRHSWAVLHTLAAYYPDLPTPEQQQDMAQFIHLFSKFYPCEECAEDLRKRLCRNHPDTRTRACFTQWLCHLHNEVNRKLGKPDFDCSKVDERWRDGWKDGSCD
HNF4A DNA FP: change in binding of human HNF4 alpha to DNA | P41235 | HNF4a-FITC DNA binding, fluorescence polarization, 1 h | activity change, % at 10 µM | actives 0.3% (n = 360,000); in the data active = activity change above about 30%, passing the limit was not always enough;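 also: controls were the assay level and a saturating level of protein; the project sought stronger binding though the title names inhibitors; some compounds called inactive have numbers as strong as hits; positive values seem to mean higher polarization but the record does not say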
Target sequence (P41235 whole entry, looked up): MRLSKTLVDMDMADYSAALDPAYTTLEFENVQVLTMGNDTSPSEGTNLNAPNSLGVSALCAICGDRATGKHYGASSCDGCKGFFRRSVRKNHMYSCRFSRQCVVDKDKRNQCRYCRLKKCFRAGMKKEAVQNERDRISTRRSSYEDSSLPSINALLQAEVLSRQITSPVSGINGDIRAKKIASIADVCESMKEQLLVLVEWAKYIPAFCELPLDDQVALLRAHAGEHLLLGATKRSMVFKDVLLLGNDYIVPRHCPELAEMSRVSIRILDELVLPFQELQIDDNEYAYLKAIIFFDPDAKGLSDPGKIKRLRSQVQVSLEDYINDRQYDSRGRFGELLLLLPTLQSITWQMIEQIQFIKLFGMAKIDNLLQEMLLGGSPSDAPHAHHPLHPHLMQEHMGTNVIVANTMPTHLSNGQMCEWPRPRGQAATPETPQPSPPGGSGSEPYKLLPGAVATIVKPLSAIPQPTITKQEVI
Ecoli rRNA inh: selective bacterial rRNA inhibition in E. coli; E. coli WT GFP vs humanized-ribosome RFP mutants, fluorescence, 24 h; active compounds read low; DMSO median 0, no signal -100; GFP signal change (wild-type ribosome), % (no concentration beside the values); actives 1.6% (n = 350,000);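 active = significant combined selectivity score with lowered wild-type GFP, culture density cut under 30%, mutant RFP and density less affected; inactive = any of these conditions unmet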; also: one replicate is shown; some compounds called inactive have numbers as strong as hits
AF4-AF9 inh: inhibitors of human MLL-AF4/AF9 interaction | P42568 | AlphaScreen, biotin-AF4 peptide binding to FLAG-AF9 | inhibition, % at 10 µM | actives 0.47% (n = 350,000) | AID 651704;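 active = every replicate reaching a set inhibition limit, whatever the replicate mean, cut at about 25% in these data; inconclusive = mean inhibition reaches that limit but some replicates miss it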;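 also: 0% = plate neutral control median and 100% = total signal loss; the record names both 10 and 1 µM as test concentration; the first replicate is given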
FGF22 binding: binders of recombinant human FGF22 by thermal shift | Q9HCT0 | SYPRO orange fluorescence; percent of sucrose octasulfate shift, DMSO zero | calls only at 9.99 µM | actives 1.5% (n = 340,000) | AID 651658;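 active = melting point raised past a set limit in the mean and every replicate; inconclusive = no clear call; three in four hits are not shown here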
Target sequence (Q9HCT0 whole entry, looked up): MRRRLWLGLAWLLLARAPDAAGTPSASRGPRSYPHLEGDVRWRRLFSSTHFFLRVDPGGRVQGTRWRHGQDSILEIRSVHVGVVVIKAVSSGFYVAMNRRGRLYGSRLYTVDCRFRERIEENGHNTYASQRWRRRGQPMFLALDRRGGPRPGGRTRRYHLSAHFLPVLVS
Vif TR-FRET: HIV-1 Vif–A3G interaction blockers – biochemical, TR-FRET, GST-Vif 1-94, biotin-A3G peptide, dose response retest, primary screen (AID 1117319); TR-FRET GST-Vif / biotin-A3G peptide binding; higher % means a stronger effect; test concentration not given here; strong numbers were not always called active; inhibition, %; hits with a dose series show IC50 in µM; actives 0.57% (n = 260,000);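 active = above the screen mean plus three standard deviations and confirmed in dose response; inconclusive = results disagree or hit not tested in dose response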;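 also: Vif residues 1-94 fused to GST binding biotinylated APOBEC3G peptide 110-148; 0% = full assay without inhibitor and 100% = GST in place of GST-Vif; retest series ran down from 100 µM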
Ecoli rRNA inh OD600: second read-out of Ecoli rRNA inh, no call of its own (marks repeat the call); OD600 change, %; measured here: OD600 growth;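 optical density of the mix in the first replicate; 0 = DMSO median and -100 = no signal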
Ecoli rRNA inh RFP: further read-out of Ecoli rRNA inh, marked with its call; RFP signal change, %; measured here: RFP humanized mutant strains;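 first replicate; 0 = DMSO median and -100 = no signal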
* = called active by the depositor; i = inactive; ? = inconclusive; nt = not tested or not shown; & = joins results of further samples. A portion of the library. The share of hits here may be higher or lower than overall.

molecule | E coli growth | ALR H2O2 inh | HNF4A DNA FP | Ecoli rRNA inh | Ecoli rRNA inh OD600 | Ecoli rRNA inh RFP | AF4-AF9 inh | FGF22 binding | Vif TR-FRET
C#CC[N+]1(C)[C@@H]2CC[C@H]1CC(OC(=O)C(CO)c1ccccc1)C2 (stereo partly specified) | 0.68 | -13 | 2.9 | 5 | 9 | 0.9 | 0.4 | i | -6%
CCC(C(=O)N1CCC2(CC1)OCCO2)n1c2ccccc2c2nc(=O)cc(C)n21 (stereo unspecified) | 0.66 | -2 | 1.9 | 16 | 8 | 0.2 | 5.6 | i | nt
CCCCCn1c(=O)c(C(=O)Nc2ccccc2)c(O)c2ccccc21 | 0.66 | -2 | 1.4 | 1 | 12 | 0.0 | -0.2 | i | nt
CC(C)(C)n1cc(C(=O)c2ccccc2OCCCF)cn1 | 0.71 | -6 | -0.5 | 2 | -5 | -5.7 | -3.6 | i | -3%
COC(=O)C1=C(c2ccc(OCc3ccccc3)cc2)C[C@@H]2CC[C@H]1N2C(=O)NCCCCc1ccccc1 | nt | nt | 0.0 | nt | nt | nt | -2.3 | i | -3%
Cc1ccc2c(c1)C1C[N+](C)(CC(=O)c3ccc(Cl)cc3Cl)CCC1N2C(=O)c1ccc(F)cc1 (stereo unspecified) | 0.67 | nt | 3.2 | -50 | -78 | -14 | 6.1 | i | nt
COC(=O)C1=C(c2ccc(-c3ccccc3)c(F)c2)C[C@@H]2CC[C@H]1N2C(=O)NC1CC1 | nt | -1 | 4.0 | -26 | -57 | -4.1 | 6.0 | i | nt
O=C1NC(=O)C(=Cc2ccsc2)C(=O)N1 | nt | 2 | -2.9 | 16 | 8 | 2.1 | -1.1 | i | -3%
Fc1ccc(NC(=S)N2Cc3ccccc3-n3nncc3C2)cc1 | nt | nt | 0.7 | -11 | -7 | -1.3 | -0.8 | nt | -4%
O=c1[nH]c(=O)n(Cc2ccco2)c(O)c1C=NC1CCN(Cc2ccccc2)CC1 | 0.68 | 1 | -0.6 | -22 | -19 | -0.9 | 48* | i | 5%
O=C(CNC(=O)OCc1ccccc1)Nc1ccc(Br)cc1C(=O)c1ccccc1 | 0.75 | -5 | 1.6 | nt | nt | nt | nt | nt | -4%
CC1(C)C(c2ccccc2)=NC(c2cccnc2)N1O (stereo unspecified) | 0.72 | -3 | -0.3 | nt | nt | nt | nt | nt | 3%
CC(C)(C)N1Cc2ccccc2C1=N | 0.71 | -8 | -0.1 | nt | nt | nt | nt | nt | 5%
O=C1NC(=O)C(=Cc2ccc3ccccc3c2)C(=O)N1 | 0.67 | 5 | 2.3 | 19 | 21 | -1.6 | -13 | i | 30%
COC(=O)C1=C(c2ccc3ccccc3c2)C[C@@H]2CC[C@H]1N2C(=O)N1CCC(O)CC1 | 0.71 | -10 | 1.2 | nt | nt | nt | nt | nt | nt
CCCC(=O)NC(Oc1ccccc1Cl)C(Cl)(Cl)Cl (stereo unspecified) | 0.73 | 7 | 2.3 | -20* | 2.6* | 0.4* | 0.4 | i | -3%
Cc1c(C(=O)N2CCC3(CC2)OCCO3)sc2ncnc(N3CCN(c4ccccn4)CC3)c12 | 0.69 | -6 | -2.3 | nt | nt | nt | nt | nt | 8%
Cc1cc(/C=C2\C(=O)NC(=O)N(c3ccc(Br)cc3)C2=O)c(C)n1C | 0.71 | nt | 1.9 | 11 | 10 | 1.4 | -4.5 | i | 25%
O=C(O)[C@@H]1[C@@H](CO)[C@@H]2Cn3c(cccc3=O)[C@H]1N2C(=O)c1ccccc1 | nt | nt | nt | 1 | -9 | 0.5 | -3.0 | i | nt
O=c1cccc2n1CC1CC2CN(C(c2ccccc2)c2sc3ncnn3c2O)C1 (stereo unspecified) | 0.77 | -4 | 1.4 | -4 | -4 | -2.3 | -7.3 | i | ?
CN1C(=O)N(C)C(=O)C2(Cc3cc(NC(=O)c4ccccc4)ccc3N3CCCC32)C1=O (stereo unspecified) | 0.66 | -11 | 16 | 2 | 9 | 2.1 | -2.5 | i | 9%
COC(=O)[C@H]1[C@H](CO)[C@H]2Cn3c(ccc(-c4ccccc4F)c3=O)[C@@H]1N2Cc1ccccc1 | nt | nt | nt | -2 | -2 | -2.6 | -5.9 | i | nt
CCN1CCN(C(=O)COc2ccc(S(=O)(=O)N(C)Cc3ccccc3)cc2)CC1 | 0.63 | -4 | 0.9 | nt | nt | nt | nt | nt | 1%
COc1ccc(S(=O)(=O)NC(CC(=O)N2CCC3(CC2)OCCO3)C(C)C)cc1 (stereo unspecified) | 0.69 | -8 | 4.0 | -3 | -2 | -0.4 | 3.6 | i | 0%
COc1ccccc1CC1/C(=N/O)C2CCN1CC2 (stereo unspecified) | nt | 2 | 3.4 | 6 | 3 | 2.9 | -1.5 | i | -2%

(list continues)
molecule | E coli growth | ALR H2O2 inh | HNF4A DNA FP | Ecoli rRNA inh | Ecoli rRNA inh OD600 | Ecoli rRNA inh RFP | AF4-AF9 inh | FGF22 binding | Vif TR-FRET
COc1ccc(-c2c[n+](CC(=O)c3cccs3)c3n2CCC3)cc1 | 0.68 | 2 | -1.5 | -21 | -20 | 7.5 | 5.8 | i | -10%
Cc1c2cnn(CC(=O)N3CCC4(CC3)OCCO4)c(=O)c2c(C)n1Cc1ccccc1 | 0.75 | 2 | -0.8 | nt | nt | nt | nt | nt | -10%
O=C(c1ccc(C(F)(F)F)cc1)C1CCCN(C2CCSCC2)C1 (stereo unspecified) | 0.63 | -4 | 0.5 | 4 | -16 | -0.9 | -13 | i | -14%
Brc1ccc2c(c1)C(OC1CN3CCC1CC3)c1ccccc1CS2 (stereo unspecified) | 0.64 | 2 | 0.4 | nt | nt | nt | nt | nt | -3%
O=C1c2ccccc2C(=O)N1Cc1nc2ccccc2c(=O)n1-c1cccnc1 | 0.76 | -1 | -1.4 | nt | nt | nt | nt | nt | -13%
N=C1c2ccccc2CN1NC(=O)c1ccco1 | 0.68 | nt | -0.2 | 15 | 18 | 5.1 | 0.3 | i | 0%
C=CCn1c(O)c(C(CC)=Nc2cccc(C(F)(F)F)c2)c(=O)[nH]c1=O | 0.62 | -5 | 4.3 | 12 | -2 | 0.4 | 4.8 | i | -8%
Cc1cc(C=C2C(=O)NC(=O)NC2=O)c(C)n1-c1ccncc1 | 0.71 | 21 | 2.2 | 7 | 5 | 3.6 | -2.8 | i | nt
Cc1ccc2c(c1)C1CN(C)CCC1N2C(=O)/C=C/c1ccc2c(c1)OCO2 (stereo unspecified) | 0.72 | 2 | -3.0 | 1 | -7 | 4.7 | 9.2 | i | 7%
CC(=NCc1cccnc1)c1c(O)n(-c2ccc(Cl)cc2)c(=O)[nH]c1=O | 0.63 | 0 | -2.2 | 10 | 2 | -0.9 | 2.6 | i | 1%
COc1ccc(N2C(=O)/C(=C/c3ccc(C)o3)C(=O)NC2=S)cc1 | 0.64 | nt | 15 | 6 | -1 | 7.8 | -2.8 | i | ?
CC1(C)CN=C(Nc2ccc(F)c(Cl)c2)S1 | 0.59 | 2 | -2.2 | -9 | -18 | -1.1 | -3.4 | i | -1%
Fc1ccccc1CNCCc1c[nH]c2ccccc12 | 0.68 | 12 | -1.4 | 6 | 0 | 10 | 4.6 | i | 2%
O=C1NC2C(=CC(O)C(O)C2O)c2cc3c(c(O)c21)OCO3 (stereo unspecified) | nt | nt | -2.8 | 4 | 7 | -3.4 | -1.0 | i | -5%
COCCNC(=O)Cn1cc(C(=O)c2ccccc2F)c2ccccc21 | 0.65 | 2 | 2.0 | 8 | 6 | -2.6 | 2.1 | i | nt
COc1ccc2[nH]c(C)c(CCNCc3cccnc3)c2c1 | 0.66 | 43 | -2.2 | 47 | 18 | 5.4 | 15 | i | nt
Cc1ccc(-n2c(C)nc3ccccc3c2=O)cc1C | 0.69 | nt | -3.6 | 7 | -1 | -0.4 | 1.0 | i | nt
NCCc1ccc(O)cc1 | nt | nt | -0.9 | 2 | 6 | 3.7 | 11 | i | 1%
O=C1NCN(c2ccccc2)C12CCNCC2 | 0.69 | 8 | 0.7 | nt | nt | nt | nt | nt | 0%
O=C(NCNC(=O)NC1C(=O)NC(=O)N1CO)NC1C(=O)NC(=O)N1CO (stereo unspecified) | 0.68 | -8 | -2.4 | nt | nt | nt | -2.7 | i | nt
CN1C(=O)C(=Cc2ccccc2Oc2ccc(Cl)cc2)C(=O)N(C)C1=O | 0.76 | 23 | 1.6 | nt | nt | nt | nt | nt | 8%
COC(=O)C1=C(c2ccccc2)C[C@@H]2CC[C@H]1N2C(=O)N1CCCC1 | nt | 1 | -3.6 | -4 | -8 | -2.9 | 4.2 | i | nt
CCOc1cc(C=C2C(=O)NC(=O)NC2=O)ccc1OCC(=O)N1CCOCC1 | 0.66 | 8 | 2.9 | nt | nt | nt | nt | nt | -6%
Cc1cccc(OP(N)(=O)Oc2cccc(C)c2C)c1C | 0.69 | -5 | -0.1 | 6 | -8 | -1.7 | nt | i | -7%
Cc1cc(C)cc(N2C(=O)NC(=O)/C(=C\c3cccn3-c3ccccc3)C2=O)c1 | nt | 51 | -1.9 | nt | nt | nt | nt | nt | 13%

(further entries)
molecule | E coli growth | ALR H2O2 inh | HNF4A DNA FP | Ecoli rRNA inh | Ecoli rRNA inh OD600 | Ecoli rRNA inh RFP | AF4-AF9 inh | FGF22 binding | Vif TR-FRET
COc1cccc2cc(-c3cc(=O)oc4ccc(OC(=O)N(C)C)cc34)oc12 | 0.64 | -1 | 1.6 | 14 | 13 | -1.0 | -4.9 | i | nt
O=c1c2ccccc2nc(-c2ccccc2Cl)n1-c1cccc(O)c1 | 0.68 | -4 | 0.8 | 0 | 2 | 3.7 | 0.0 | i | -3%
O=C(NC1CCCCC1)N1Cc2cc(-c3cccc(F)c3)ccc2-n2nncc2C1 | nt | nt | 4.9 | -8 | -4 | -1.0 | -3.4 | i | nt
Cc1nc2ccsc2c(=O)n1-c1ccccc1Cl | 0.7 | 2 | 1.2 | 5 | 3 | 2.0 | -3.3 | i | nt
COC(=O)[C@@H]1N=C(c2ccc(OC)cc2)O[C@]12C(=O)N(C)c1ccc(Cl)cc12 | nt | nt | 6.0 | 10 | 10 | 4.3 | 6.4 | i | nt
COc1ccc(OC)c(CN2CCN(C(=O)COc3cccc(C)c3)CC2)c1 | 0.66 | 7 | -2.4 | nt | nt | nt | nt | nt | -5%
Cc1ccc2ccccc2c1NC(=O)CNC1CCCCC1 | 0.73 | -10 | -2.0 | nt | nt | nt | nt | nt | 2%
CCOc1ccc2c(c1)c(C(C)=O)c(C)n2Cc1ccco1 | 0.7 | 1 | 1.9 | 4 | 3 | -9.5 | -1.6 | i | -7%
COc1ccc(N=C2SCCCN2C)cc1 | 0.73 | 0 | 2.0 | nt | nt | nt | nt | nt | 4%
COc1ccc(S(=O)(=O)N2Cc3ccccc3-n3nncc3C2)cc1 | nt | nt | 1.8 | -8 | 1 | 2.8 | 1.9 | i | 8%
Cc1cccc(N=Nc2ccc(N(C)C)cc2)c1 | 0.73 | 46 | 5.5 | 19 | 27 | 5.0 | 27* | i | nt
O=C(Nc1ccc2c(c1)OCO2)c1cn(Cc2ccc(F)cc2)nn1 | 0.76 | -10 | 0.8 | nt | nt | nt | nt | nt | 5%
C[C@@H]1CN([C@@H](C)CO)C(=O)CCCn2nncc2CO[C@H]1CN(C)C(=O)Oc1ccccc1 | nt | nt | -12 | 6&0 | 9&4 | 0.6&-3.0 | -3.4&-1.4&-11 | i | -9%
O=C(O)Cn1cc(/C=C2\C(=O)NC(=O)N(c3ccc(Cl)cc3)C2=O)c2ccccc21 | 0.68 | 27 | -2.9 | 2 | 10 | -2.9 | 0.5 | i | 7%
